High-throughput results as filed in PubChem BioAssay.
Rango-impB inh: inhibitors of Rango-importin beta complex formation | Q14974 | Rango CFP/YFP FRET sensor + importin beta, 45 min | Potency, µM (series often up to 92.2 µM), inactives show at the top dose inhibition of complex formation | 340,000 compounds, 0.031% hits | AID 540263; active = rising FRET ratio curve, often small or poorly fitted; inconclusive = mostly compound fluorescence or quenching in the first reads; inactive = flat curves in all reads;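 further: potency means the concentration at half of the fitted maximal effect; 0% = DMSO wells and 100% = buffer wells lacking importin beta; nearly all actives have a fitted effect of over 15% in size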
Target sequence (Q14974 whole entry, looked up): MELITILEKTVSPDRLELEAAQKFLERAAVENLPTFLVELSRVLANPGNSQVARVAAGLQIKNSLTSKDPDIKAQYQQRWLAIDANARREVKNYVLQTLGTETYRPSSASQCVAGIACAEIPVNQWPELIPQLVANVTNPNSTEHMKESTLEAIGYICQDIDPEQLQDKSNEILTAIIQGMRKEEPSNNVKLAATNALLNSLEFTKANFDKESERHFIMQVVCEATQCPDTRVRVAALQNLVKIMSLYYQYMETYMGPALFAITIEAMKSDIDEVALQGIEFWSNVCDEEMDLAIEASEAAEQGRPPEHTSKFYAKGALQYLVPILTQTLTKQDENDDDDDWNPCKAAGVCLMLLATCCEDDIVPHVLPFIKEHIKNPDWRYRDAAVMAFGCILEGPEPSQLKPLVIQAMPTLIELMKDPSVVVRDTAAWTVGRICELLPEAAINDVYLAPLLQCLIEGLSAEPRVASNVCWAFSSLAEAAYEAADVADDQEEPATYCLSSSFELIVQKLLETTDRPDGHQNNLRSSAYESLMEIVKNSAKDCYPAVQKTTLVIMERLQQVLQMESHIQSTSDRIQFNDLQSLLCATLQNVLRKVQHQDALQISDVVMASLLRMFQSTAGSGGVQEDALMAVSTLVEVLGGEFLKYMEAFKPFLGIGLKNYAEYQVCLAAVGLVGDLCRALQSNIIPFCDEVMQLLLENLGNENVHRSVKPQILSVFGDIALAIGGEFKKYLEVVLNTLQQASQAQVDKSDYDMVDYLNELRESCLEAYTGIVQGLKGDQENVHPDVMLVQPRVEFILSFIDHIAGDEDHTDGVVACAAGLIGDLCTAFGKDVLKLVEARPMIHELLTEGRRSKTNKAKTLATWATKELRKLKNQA
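Inhibition scored from the CFP 486 nm/YFP 530 nm FRET ratio 45 min after adding 0.125 microM importin beta to 50 nM Rango biosensor preincubated 5 min with compound (room temperature, PBS with DTT, Tween-20, BSA). No-importin wells as positive control.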
GLA inh pH 4.5: blocks human alpha-galactosidase A at pH 4.5. P06280. purified enzyme, 4-MU-alpha-Gal fluorescence, pH 4.5. activity change, negative = inhibition, % at 105 µM. 230,000 tested, under 10 active. AID 1467; inconclusive = small, poorly fitted or top-dose-only inhibition, or a rising curve; inactive = flat fitted curve, though single readings scatter; no compound was filed as active;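 further: 0% = full activity with enzyme and -100% = basal without enzyme; dose as in the result columns while the protocol names 77 µM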
miR-21 reporter: miR-21 reporter, rising signal. 340,000 tested, under 10 active. HeLa miR-21 FLuc reporter, luciferase, 48 h. Potency, µM (highest dose often 38.3 µM), for the others: at the highest dose reporter change, positive = more light; active = well fitted rising curve with a large enough effect; inconclusive = small, poorly fitted or top-dose-only effect; inactive = no such curve, though single readings can be large or run the other way;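 further: % of control where 0% means no effect; miR-21 action dims this reporter so a rising signal means less miR-21 action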
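Compounds were titrated across several concentrations (up to approximately 40 uM) and incubated 48 hours with HeLa miR-21-FLuc reporter cells (miR-21 target sequence downstream of FLuc, endogenous miR-21). Readout was firefly luciferase luminescence after lytic detection reagent.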
Rango release inh: prevents RanGTP from dissociating the Rango-importin beta complex. 340,000 compounds, 0.071% hits. O95149+P62826. Biochemical FRET Rango-importin beta, RanGTP-induced dissociation. AID 540253. Potency, µM (series often up to 46.1 µM), for inactives: top-dose activity change, negative = inhibition; active means falling FRET ratio curve, often poorly fitted, with flat reads before Ran was added; inconclusive means other falling curves, or compound fluorescence or quenching; inactive means flat or rising ratio curve;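 further: potency means the concentration at half of the fitted maximal effect; % of control where 0% means no effect; nearly all actives have a fitted effect of over 45% in size; -100% = wells without RanGTP and RCC1; the record marks most hits as doubtful in a second field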
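Rango (0.1 uM)–importin beta (0.25 uM) complex; RanGTP-RCC1 trigger; 45 min RT; CFP/YFP FRET read.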
* = called active by the depositor; ? = inconclusive; / = no result given; [ ] = another dose, or the depositor's remark. This is a subset; count on the stated rates, not on these rows.

SMILES	Rango-impB inh	GLA inh pH 4.5	miR-21 reporter	Rango release inh
CCOc1ncccc1C(=O)Nc1cccc(S(=O)(=O)N2CCCCC2)c1	-2.2%	/	/	-11%
O=C(CC1NCCNC1=O)NC1Cc2ccccc2C1 (stereo unspecified)	-2.9%	7	-6%	9%
O=C(O)CCN1C(=O)c2ccccc2C1=O	2.3%	4	-4%	8%
CCC(C)c1ccc(NC(=S)NCc2ccccc2OC)cc1 (stereo unspecified)	-3.7%	2	1%	15%
CCn1c(=O)c2cc(C(=O)NC(C)C)sc2c2ccccc21	1.1%	5	-2%	-7%
Cc1noc(C)c1S(=O)(=O)N1CCC(C(=O)Nc2ccccn2)CC1	8.3%	2	-10%	10%
Cc1cccc(NC(=O)CCS(=O)(=O)c2cc3c(cc2Cl)NC(=O)CO3)c1	-2.1%	/	-4%	21%
COc1ccc([C@@H]2CC(=O)c3c(O)cc(O[C@@H]4OC(CO[C@@H]5OC(C)[C@H](O)[C@@H](O)[C@H]5O)[C@@H](O)[C@H](O)[C@H]4O)cc3O2)cc1O (stereo partly specified)	3.8%	/	/	-9%
CC(=O)Nc1ccc(C(=O)N/C(=C/c2ccccc2)C(=O)NCc2ccco2)cc1	?	/	-1%	-5%
Cc1cccc(/C=N/NC(=O)c2ccc(F)cc2)n1	0.3%	/	-24%	-1%
CC(/C=C/C1(O)C(C)CC(O)CC1(C)C)OC1OC(CO)C(O)C(O)C1O (stereo unspecified)	-2.1%	7	6%	-13%
COc1ccc(NC(=O)CSc2ccccc2)c(OC)c1	0.8%	-2	-53%	6%
Cc1cccc(C(=O)NNc2ncnc3c2cnn3C)c1	-0.3%	-4	0%	6%
O=C1/C(=C/c2ccncc2)SC(=S)N1C1CCS(=O)(=O)C1 (stereo unspecified)	-1.4%	2	13%	-2%
COc1cccc(Oc2ccc3nnc(C(F)(F)F)n3n2)c1	-0.1%	-12	-3%	12%
Cc1ccc(S(=O)(=O)N2CCN(c3ncccn3)CC2)cc1C	3.1%	/	/	23%
CC(=O)C1C(c2ccccc2)c2c(n[nH]c2C)CC1(C)O (stereo unspecified)	?	-2	-2%	-14%
O=C(O)/C(=C\c1cccs1)c1ccc(F)cc1	-1.4%	-3	-1%	15%
CC1=C(C)CC(C(=O)Nc2cccc([N+](=O)[O-])c2)C(C(=O)O)C1 (stereo unspecified)	0.1%	1	-1%	-3%
O=[N+]([O-])c1ccc(C2NS(=O)(=O)N=C3CCCCCN32)cc1 (stereo unspecified)	0.3%	10	2%	20%
CCCCCCC1CCC(C(=O)NC(CCSC)C(=O)NC(C(=O)OC)C(C)C)CC1 (stereo unspecified)	3.2%	-2	-1%	-14%
CC1CCN(c2ccccc2NC(=S)NC(=O)C(C)(C)C)CC1	-2.6%	-11	-7%	10%
CCOCCCn1c(=S)[nH]c2cc(C(=O)N3CCC(C(N)=O)CC3)ccc2c1=O	-2.5%	0	0%	1%
Cc1cc(C)n(NC(=S)NC2CCCCC2)c(=O)c1C#N	-1.1%	-1	1%	-9%
NNC(=O)c1oc2ccccc2c1-n1cccc1	2.5%	4	26%	14%

Further compounds
SMILES	Rango-impB inh	GLA inh pH 4.5	miR-21 reporter	Rango release inh
Cc1ccc(C)c(C(=O)CCC(=O)O)c1	-0.5%	9	0%	20%
COc1ccc(C2CC(C(C)(C)C)=NN2c2ccc(S(N)(=O)=O)cc2)cc1 (stereo unspecified)	-0.2%	/	/	-1%
CCCCN1C(=O)NC(NC(=O)c2ccco2)(C(F)(F)F)C1=O (stereo unspecified)	-0.5%	6	1%	-14%
S=C1NCN(Cc2ccco2)CN1c1ccccc1	-1.6%	0	-11%	-8%
CCCCc1c(O)nc(SCCC(=O)O)[nH]c1=O	/	0	0%	/
Cc1cccc(-n2cnc(C(=O)NC3CCCCCC3)c2)n1	-1.4%	7	-65%	6%
Cc1ccc(CN2CCC(C(=O)Nc3cccc(-c4cccc(F)c4)c3)CC2)o1	4.6%	/	12%	4%
Cc1ccc(CNC(=O)COC(=O)CSc2ccc(Br)cc2C)cc1	-1.5%	-19	0%	1%
CN1CCc2[nH]c3ccc(C(=O)NN)cc3c2C1	-2.7%	-2	-2%	-11%
O=C(O)c1cn(-c2ccc(N3CCCC3)c(F)c2)c2c(F)c(F)c(F)cc2c1=O	?	1	-3%	-13%
COc1ccc(CNc2nc(NCc3ccc(OC)cc3)n(C(=O)c3ccncc3)n2)cc1	-0.1%	0	-2%	-1%
O=C(Cn1ncc2c([nH]c3ccccc32)c1=O)Nc1ccc(F)cc1F	0.7%	/	-8%	-12%
COc1ccccc1NC(=O)Nc1ccnn1C1CCN(C(=O)c2cccnc2)CC1	1.0%	/	-1%	9%
Cc1ccc(NC(=O)C2SC(=Nc3ccccc3)C(C(=O)Nc3ccc(Cl)cc3)=C2N)cc1 (stereo unspecified)	1.5%	-14	-15%	-7%
N#Cc1nc(-c2ccco2)oc1NCc1cccnc1	-5.3%	1	-6%	-1%
COc1ccc(CCNS(=O)(=O)c2ccc([N+](=O)[O-])cc2)cc1OC	-3.5%	/	2%	-18%
CCn1c(=O)cc(SCC(=O)N2CCCCC2)c2ccccc21	0.9%	4	-5%	-16%
Cc1cc(C(=O)Nn2c(C)nc3ccccc3c2=O)ccc1[N+](=O)[O-]	-1.5%	9	-2%	-4%
Cc1cc(=O)oc(C)c1C(=O)NCc1ccccn1	-5.1%	10	-5%	-28%
Cc1nnc(SCC2=C(C(=O)O)N3C(=O)C(NC(=O)c4cc(F)c(F)cc4Cl)C3SC2)s1 (stereo unspecified)	-4.0%	-4[21.1 µM]	-2%	10%
Cc1cc(C)c2cc(C#N)c(N3CCCN(S(=O)(=O)c4ccccc4)CC3)nc2c1	-1.6%	/	/	?
COc1ccc(-c2coc3cc(O)ccc3c2=O)cc1O	1.4%	11	-37%	?
Cn1ccnc1SCC(=O)NC12CC3CC(CC(C3)C1)C2	5.2%	2	-23%	2%
CCOC(=O)c1csc(NC(=O)c2cc3ccccc3o2)n1	-1.8%	-8	-29%	2%
CC(C)(C)c1c(Cl)c(O)c(-c2ccccc2)c(=O)n1-c1ccccc1	-1.7%	-7	-12%	-10%

Going on with the list:
SMILES	Rango-impB inh	GLA inh pH 4.5	miR-21 reporter	Rango release inh
Cc1ccc(CNC(=O)CN2C(=O)CSc3ccc(S(=O)(=O)N4CCC(C)CC4)cc32)cc1	-1.6%	/	3%	-5%
O=C(COc1ccc(-c2nnco2)cc1)NCc1ccccc1Cl	1.2%	0	-19%	-10%
O=C(NCCc1ccc(Cl)cc1)c1cc(-c2ccncc2)nc2ccccc12	-0.9%	-5	7%	7%
O=C1CC(=C2c3ccccc3-c3ccccc32)C(=O)N1CCCCN1CCN(c2ccccc2)CC1	-0.1%	-9	-4%	11%
COc1cccc(CNC(=O)CCC2CCCN(C(=O)c3ccc(OC)c(F)c3)C2)c1 (stereo unspecified)	-0.9%	-3	-2%	5%
Cc1nc(S(=O)(=O)NC2CCCCC2)c(C#N)c(C)c1Cl	0.0%	-3	4%	0%
O=[N+]([O-])c1ccc(Cl)cc1Sc1nc2ccccc2o1	-1.1%	-11	29%	5%
CCOC(=O)COc1ccccc1/C=N/O	-1.7%	3	6%	6%
CC(C)(C)c1nn2cnnc2n(/N=C/c2ccccc2)c1=O	-5.8%	3	-8%	3%
Cc1cc(C)n(-c2ccc(C(=O)OCC(=O)Nc3ccc(S(=O)(=O)N4CCCCC4)cc3)cc2)n1	2.0%	-9	1%	-2%
CN(Cc1cccnc1)Cc1c(C(=O)N2CCc3ccccc3C2)nc2ccc(Cl)cn12	0.3%	-5	-1%	0%
NC(=O)CSc1nnc(NC(=O)c2ccc(Br)o2)s1	-1.4%	/	-23%	-7%
CC(C)C(NC(=O)c1ccccc1)C(=O)N1CCCCCC1 (stereo unspecified)	0.0%	/	0%	1%
Cc1cccc(NC(=O)c2ccc3c(c2)OCCO3)c1	-0.3%	/	-7%	-1%
CCOC(=O)c1sc2nc(C)nc(Nc3ccc(OC)cc3)c2c1C	?	7	-1%	-19%
O=C(O)c1cccc(-n2cc(-c3cccc(C(F)(F)F)c3)cn2)c1	9.5%	/	-54%	?
O=C(c1ccccc1)N1CCC(O)(c2cccnc2)CC1	-3.9%	7	-4%	-12%
N=c1sccn1CC(=O)NCc1ccc(Cl)cc1Cl	-2.4%	10	-7%	12%
O=C(Oc1cc(=O)oc2c1c(=O)n1c3c(cccc23)CC1)c1ccccc1	-3.5%	-3	5%	-7%
Cc1cccc(-c2cc(C(=O)Nc3cccnc3)c3ccccc3n2)c1	-3.7%	/	11%	4%
COc1ccc(Cl)cc1C(=O)Nc1cc(=O)n(C)c(=O)n1C	-0.3%	4	-1%	30%
CN(C(=O)Cc1csc(-c2ccccc2)n1)c1c(N)n(Cc2ccccc2)c(=O)[nH]c1=O	0.3%	/	/	4%
Cc1cc(C(=O)COC(=O)c2ccc(O)cc2)c(C)n1-c1ccccc1F	3.1%	-5	-39%	-3%
Cc1ccc2sc(N(CCCN(C)C)C(=O)CCS(=O)(=O)c3ccccc3)nc2c1C	-2.5%	/	?	-7%
CCCCn1c(=N)c(S(=O)(=O)c2ccc(Br)cc2)cc2c(=O)n3cccc(C)c3nc21	?	/	-4%	-28%

One compound at a time, from the list above. Order of values: Rango-impB inh | GLA inh pH 4.5 | miR-21 reporter | Rango release inh
CCOC(=O)COc1ccccc1/C=N/O is entered as -1.7% | 3 | 6% | 6%
O=C1CC(=C2c3ccccc3-c3ccccc32)C(=O)N1CCCCN1CCN(c2ccccc2)CC1 is entered as -0.1% | -9 | -4% | 11%
Cc1cccc(NC(=O)c2ccc3c(c2)OCCO3)c1 is entered as -0.3% | / | -7% | -1%
N=c1sccn1CC(=O)NCc1ccc(Cl)cc1Cl is entered as -2.4% | 10 | -7% | 12%
NC(=O)CSc1nnc(NC(=O)c2ccc(Br)o2)s1 is entered as -1.4% | / | -23% | -7%

A stretch of the results above, as a working copy:
SMILES	Rango-impB inh	GLA inh pH 4.5	miR-21 reporter	Rango release inh
Cc1ccc(CNC(=O)CN2C(=O)CSc3ccc(S(=O)(=O)N4CCC(C)CC4)cc32)cc1	-1.6%	/	3%	-5%
O=C(COc1ccc(-c2nnco2)cc1)NCc1ccccc1Cl	1.2%	0	-19%	-10%

Further compounds
SMILES	Rango-impB inh	GLA inh pH 4.5	miR-21 reporter	Rango release inh
CS(=O)(=O)c1cccc(C(=O)Nc2ccc(S(=O)(=O)N3CCCCC3)cc2)c1	0.5%	/	/	14%
CC(C)(C)[C@H]1COC(=O)[C@H](NC(=O)OCC2c3ccccc3-c3ccccc32)C/C=C\C[C@@H](CC(=O)N[C@@H](CO)Cc2ccccc2)C(=O)N1	2.1%	/	/	-13%
COc1ccccc1Nc1nccc(N(C)C)c1C#N	-1.3%	0	1%	17%
COc1ccc2c(c1)CCc1c(C(=O)Nc3cc(C)n(Cc4ccc(Cl)cc4)n3)noc1-2	2.6%	1	-6%	2%
O=C(Nc1cccc(Br)c1)c1ccc2snnc2c1	3.4%	/	-19%	1%
Cc1c(C)c2c(OCC(=O)N3CCC(C(N)=O)CC3)cc3c(c2oc1=O)CCC(C)(C)O3	-0.6%	/	-7%	-16%
CCN1CCN(c2ccc(S(=O)(=O)N3CCCCC3)cc2NC(=O)COc2ccccc2)CC1	-4.7%	/	/	0%
C/C(=N\NC(=O)c1ccccc1O)c1cccs1	-3.6%	0	-2%	-5%
CCOC(=O)c1c(C)[nH]c(C)c1C(=O)COC(=O)CNC(=O)C1CCCCC1	?	-3	0%	-16%
CCCCn1c(N)c(N(Cc2ccccc2OC)C(=O)CN2C(=O)NC3(CCCC3)C2=O)c(=O)[nH]c1=O	-3.3%	/	/	13%
Cc1cc(C)c(NC(=O)Cn2c(=O)n(Cc3ccco3)c(=O)c3ccccc32)c(C)c1	4.4%	0	-6%	0%
COc1ccc(C(C)=O)cc1Cn1nnc(-c2ccccc2Br)n1	-4.6%	/	4%	0%
Cc1nc2scc(-c3ccc(C(C)C)cc3)c2c(=O)n1N	9.3%	-8	-1%	1%
COc1ccc(-c2nnn(CC(=O)N(CC(=O)NC3CCCC3)Cc3cccs3)n2)cc1OC	2.8%	2	-4%	10%
CCCCNC(=O)C1CCN(C/C(C)=C/c2ccccc2)CC1	6.7%	-3	-9%	-9%
O=C(NC(=S)Nc1ccccc1N1CCCCC1)c1cccs1	?	?	-8%	1%
COc1ccccc1NC(=S)NC1CCCCC1	3.0%	1	-2%	2%
O=C(COc1ccccc1Br)c1ccc2c(c1)OCO2	-4.6%	/	/	0%
